Six1-Eya2 blk: qHTS Assay for Inhibitors of the Six1/Eya2 Interaction. Homeobox protein SIX1 (Homo sapiens) + Protein phosphatase EYA2 (Homo sapiens), …. AlphaScreen GST-Six1/His-Eya2 binding, biochemical; stronger effect = lower value; control for the full effect not named in the record. activity change, % (test concentration not listed). 360,000 tested, 0.56% active. AID 651725, 2012; in the data active = activity change below about -65%; inconclusive = about -30% to -65%; inactive = above about -30%; also: % is scaled to controls: 0 for no effect and ±100 for the full control effect; compound concentration not given in the record
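Homogeneous AlphaScreen proximity assay pairing GST-Six1 with His-tagged Eya2 (added as 5X mix: 250 nM and 500 nM) in 50 mM Tris pH 8.0, 300 mM NaCl, 1 mM TCEP. Glutathione donor and nickel acceptor beads; 1 h, 37 °C, dark.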
PINK1 modulator: A Quantitative High throughput Screen to Identify Chemical Modulators of PINK1 Expression. PINK1 immunofluorescence, high-content cytometry, 24 h. Potency, µM (titrated, usually from 76.6 µM), inactives show at the top dose activation (PINK1 increase), actives largely listed as activators. 410,000 tested, 0.2% active. AID 624263, 2012; active = well fitted activation curve with a large enough effect; inconclusive = small, poorly fitted or top-dose-only effect; inactive = flat fitted curve, though single readings scatter; cell line not stated here;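 also: potency is read from the fitted curve at half-maximal effect; % of control where 0% means no effect; nearly all actives have a fitted effect of over 65% in size; a mitochondrial uncoupler was the plate control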
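Stable cell line treated 24 h with compounds at 5 concentrations (CCCP controls), then fixed and immunostained for PINK1 plus nuclear and cell stains; PINK1 immunofluorescence quantified by laser-scanning microplate cytometry.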
CtBP-E1A inh: qHTS Assay for Inhibitors of the CtBP/E1A Interaction; CtBP / adenovirus E1A interaction (AlphaScreen); AlphaScreen GST-E1A/His-CtBP binding, 1536-well; stronger effect = lower value; control for the full effect not named in the record; activity change, % (no concentration beside the values); 340,000 tested, 0.49% active; AID 651724, 2012; in the data active means activity change below about -65%; inconclusive means about -30% to -65%; inactive means above about -30%; also: % is scaled to controls: 0 for no effect and ±100 for the full control effect; compound concentration not given in the record
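In 5 uL wells, 23 nL compound meets equimolar GST-E1A and His-CtBP (5X stock 125 nM each) for 2 h, 37 °C. Beads (5X, 50 ug/mL) then 1 h, 37 °C, dark.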
TRPML1 agonist: qHTS for Agonists of the Human Mucolipin Transient Receptor Potential 1 (TRPML1); Mucolipin-1 (Homo sapiens), Q9GZU1; TRPML1-expressing cells, Ca2+ dye fluorescence, FDSS; host cell line not named in the record; reference of the full effect not given here; activation, % (concentration not given with the values); 410,000 tested, 0.12% active; AID 624414, 2012; in the data active = activation above about 50%; inconclusive = about 30% to 50%; inactive = below about 30%; also: 0% is about no effect; the text of the record puts the active cut at 80%
Target sequence (Q9GZU1 whole entry, looked up): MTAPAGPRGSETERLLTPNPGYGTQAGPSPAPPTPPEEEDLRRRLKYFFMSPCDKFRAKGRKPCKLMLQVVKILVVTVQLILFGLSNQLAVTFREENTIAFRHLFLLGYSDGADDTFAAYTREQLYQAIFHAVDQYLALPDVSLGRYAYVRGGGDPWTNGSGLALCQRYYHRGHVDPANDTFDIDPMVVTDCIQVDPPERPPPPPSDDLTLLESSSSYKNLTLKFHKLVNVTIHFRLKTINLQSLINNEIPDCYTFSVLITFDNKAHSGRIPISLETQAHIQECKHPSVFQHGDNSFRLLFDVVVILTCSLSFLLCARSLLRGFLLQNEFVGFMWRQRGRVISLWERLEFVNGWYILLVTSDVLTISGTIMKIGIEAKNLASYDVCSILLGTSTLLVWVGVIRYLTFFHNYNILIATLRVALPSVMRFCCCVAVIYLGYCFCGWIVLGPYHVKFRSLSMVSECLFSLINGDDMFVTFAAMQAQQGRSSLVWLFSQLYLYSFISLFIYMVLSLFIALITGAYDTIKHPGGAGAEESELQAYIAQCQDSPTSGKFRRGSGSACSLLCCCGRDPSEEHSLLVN
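In this qHTS format, compounds were pin-transferred onto Ca8-dye-loaded TRPML1-DL cells induced with Tet overnight, and intracellular Ca2+ fluorescence was recorded kinetically for 110 s after a 10 s baseline. A subsequent 4uM final 54-4 (EC80) addition followed by a second 110 s read served as the antagonist phase.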
D2 agonist: Beta-Arrestin HTS for Positive Allosteric Modulators of the Human D2 Dopamine Receptor: Agonists; AID 624465, 2012; DiscoveRx PathHunter D2 beta-arrestin, luminescence, 90 min; 100% = 57 uM dopamine signal; 360,000 tested, 0.084% active; activation, % (test concentration not listed); in the data active = activation above about 40%; inconclusive = about 15% to 40%; inactive = below about 15%; also: compound concentration not given in the record; the text of the record calls up to 30% inactive
Target sequence (P14416 whole entry, looked up): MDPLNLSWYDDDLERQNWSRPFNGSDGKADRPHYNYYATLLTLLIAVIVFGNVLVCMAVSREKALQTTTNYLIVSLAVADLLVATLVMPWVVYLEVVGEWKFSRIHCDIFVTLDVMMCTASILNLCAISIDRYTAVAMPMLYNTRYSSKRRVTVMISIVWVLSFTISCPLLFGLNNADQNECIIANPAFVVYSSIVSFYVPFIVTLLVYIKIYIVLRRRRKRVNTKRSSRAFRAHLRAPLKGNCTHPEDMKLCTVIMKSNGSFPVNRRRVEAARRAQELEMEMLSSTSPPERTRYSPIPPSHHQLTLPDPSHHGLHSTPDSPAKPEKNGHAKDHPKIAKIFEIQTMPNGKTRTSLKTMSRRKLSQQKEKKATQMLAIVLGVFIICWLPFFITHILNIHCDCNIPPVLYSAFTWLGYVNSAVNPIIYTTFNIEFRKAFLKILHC
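Agonist mode: compounds alone added to overnight-plated D2 PathHunter cells for 90 min at 37 C, with 57 uM final dopamine (EC100) defining full response. Beta-arrestin recruitment detected by chemiluminescent reagent, read after 1 h at ambient temperature.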
D2 PAM: Beta-Arrestin HTS for Positive Allosteric Modulators of the Human D2 Dopamine Receptor: Potentiators | DiscoveRx D2 beta-arrestin cells, luminescence, 90 min; 100% = 57 uM dopamine signal | potentiation, % (test concentration not listed) | 360,000 tested, 0.23% active; active = potentiation of 50% or more; inconclusive = 30% to 50%; inactive = 30% or less;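 also: compound concentration not given in the record; tested on top of an EC20 dose of dopamine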
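D2 cells co-treated with compound plus 50 nM dopamine (EC20) for 90 min at 37 deg C to detect potentiation. Beta-arrestin recruitment was read as enzyme-fragment luminescence after 1 h at ambient temperature. Full response was set by 57 uM dopamine.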
Starred values were filed as active, the others as inactive; ? = inconclusive; nt = no result given; [ ] = remark or other dose. Random draw from the library; any-hit rate near 1.3%.

Start of the listing, in advance:
Below each compound – D2 PAM	TRPML1 agonist	D2 agonist	Six1-Eya2 blk	CtBP-E1A inh	PINK1 modulator
1: O=C(NCCCc1ccc(F)cc1)C1CCC(=O)N(CCN2CCOCC2)C1 (configuration not stated)
→ 0	-0.6	3.2	5	1	-1.9%
2: O=C(COC(=O)C1CC(=O)N(Cc2ccccc2)C1)c1ccc(F)cc1 (configuration not stated)
→ -2	-1.2	-9.2	6	-10	-0.4%
3: CCCCS(=O)(=O)N1CN(S(=O)(=O)CCCC)C2NC(=O)NC21 (configuration not stated)
→ -2	-0.7	-2.3	2	5	-2.9%

All compounds of this part, from the start:
Below each compound – D2 PAM	TRPML1 agonist	D2 agonist	Six1-Eya2 blk	CtBP-E1A inh	PINK1 modulator
1: O=C(NCCCc1ccc(F)cc1)C1CCC(=O)N(CCN2CCOCC2)C1 (configuration not stated)
→ 0	-0.6	3.2	5	1	-1.9%
2: O=C(COC(=O)C1CC(=O)N(Cc2ccccc2)C1)c1ccc(F)cc1 (configuration not stated)
→ -2	-1.2	-9.2	6	-10	-0.4%
3: CCCCS(=O)(=O)N1CN(S(=O)(=O)CCCC)C2NC(=O)NC21 (configuration not stated)
→ -2	-0.7	-2.3	2	5	-2.9%
4: O=C(COC(=O)c1ccncc1)NCCCc1ccccc1
→ -4	-0.1	-2.3	-2	nt	0.8%
5: Cn1cc(Cl)c(C(=O)Nc2nc3ccc([N+](=O)[O-])cc3s2)n1
→ -4	2.0	-1.1	5	-10	-1.5%
6: COc1cc(-c2nc3ccc(C)cn3c2NCc2ccccc2)ccc1-c1cccc(Cl)c1
→ -33	-0.1	-0.4	1	0	4.4%
7: Cc1c(C)n(C)c2ccc(C(=O)Nc3cccc4ccccc34)cc12
→ 6	0.7	-2.7	-27	-21	0.7%
8: Cc1cccc(C)c1NC(=O)CN(c1c(C)cccc1C)S(C)(=O)=O
→ -5	0.0	-3.8	-2	-1	1.4%
9: COc1ccc(CCNCCC(=O)Nc2c(C)cc(C)cc2C)cc1OC
→ -7	0.8	-2.4	5	6	-1.0%
10: Cc1cnc(C(=O)OCC(=O)c2cccc3ccccc23)cn1
→ -9	0.1	-3.9	-1	2	0.7%
11: CCOC(=O)C1C2C=CC3(CN(c4ccccc4CC)C(=O)C13)O2 (configuration not stated)
→ -11	-0.2	-8.4	2	1	-1.4%
12: O=C(NCc1nnc(SCC(=O)N2CCc3ccccc32)o1)c1cccs1
→ -12	1.5	-5.9	12	-5	-1.5%
13: CC1(C)Cc2cccc(OCC(=O)NCCc3ccccc3)c2O1
→ 14	0.5	-3.3	1	-12	3.6%
14: COc1ccc(C(=O)N2CCCC2)cc1
→ -4	-0.6	-1.8	-3	-15	-4.8%[38.3 µM]
15: COc1cc(Cl)c(C)cc1NC(=O)CN1CCCCCC1
→ -4	0.4	-4.3	2	7	2.8%
16: NC(=O)c1oc2ccccc2c1NC(=O)c1ccc(F)cc1
→ -5	-0.8	-4.7	-5	-7	4.7%
17: CC(C)CN1C(=O)NC(NC(=O)c2cccnc2)(C(F)(F)F)C1=O (configuration not stated)
→ -10	2.8	-1.9	1	12	2.9%[38.3 µM]
18: COc1ccccc1NC(=O)Cc1nnc(SCC(=O)NC2=NCCS2)n1C
→ 1	-0.4	9.1	-5	0	2.0%
19: Cn1c(=O)[nH]c(=O)c2c1nc(SCCO)n2Cc1ccccc1Cl
→ -14	0.5	-5.7	-7	-17	4.0%
20: Cc1ccc(NC(=O)CCc2nc3sc4c(c3c(=O)[nH]2)CCCC4)c(Br)c1
→ -1	0.1	-0.9	-2	6	-1.6%
21: O=C(CC1C(=O)NCCN1Cc1cccc(F)c1)NC1CCCCC1 (configuration not stated)
→ 5	0.9	-3.4	3	8	0.6%
22: O=C1CC(SC(=Nc2ccccc2)Nc2ccccc2)C(=O)N1c1ccc(Cl)c(Cl)c1 (configuration not stated)
→ -32	0.2	-5.8	-2	12	?
23: COC(=O)CN(c1ccccc1OC)S(=O)(=O)c1ccccc1
→ -5	0.5	2.5	6	6	?
24: CC(=NNC(=O)c1cc(C)oc1C)c1ccc(Br)s1
→ -5	1.3	-0.3	5	0	10%
25: S=C(Nc1ccccc1)Nc1cc(Cl)ccc1Oc1ccccc1
→ -14	1.3	0.2	3	6	2.5%
26: CCc1nn2c(=O)cc(COC(=O)c3cc(Cl)c(OC)c(OC)c3)nc2s1
→ -2	-1.3	-2.0	0	nt	1.7%
27: O=C(CCNS(=O)(=O)c1ccc(Br)s1)NC1CCCC1
→ -8	-0.8	0.6	4	12	-0.7%[38.3 µM]
28: Clc1cccc(CN2CCN(c3nc4nonc4nc3NC3CC3)CC2)c1
→ -3	2.9	-2.2	-2	-3	-0.5%
29: Cc1ccc([C@@H]2C[C@H]3[C@@H](CN2S(=O)(=O)c2ccc(C)cc2)C(=O)C[C@@H](c2ccccc2F)N3S(=O)(=O)c2ccc(C)cc2)cc1
→ -3	1.8	-6.7	7	-13	5.4%
30: Cc1nc(SCC(=O)N2CCC(C(N)=O)CC2)n[nH]1
→ 6	0.7	-4.2	4	1	-1.4%
31: CCCSc1nc(C)c(CC(=O)O)c(=O)[nH]1
→ -12	-0.3	-0.5	3	1	2.6%
32: COc1ccc(-c2nc3ccccc3n2OC(C)C(=O)O)cc1 (configuration not stated)
→ 3	-0.9	-5.6	-5	0	2.1%
33: CC1CCc2nn(CC(=O)N3CCc4ccccc43)cc2C1 (configuration not stated)
→ -2	2.2	0.0	3	2	-1.8%
34: CCc1ccc(-c2nnn(Cc3nn[nH]n3)n2)cc1
→ -3	-0.4	-2.2	-2	0	0.2%
35: COc1ccc2nc3n(c(=O)c2c1)-c1cc2ccccc2cc1C(=O)NC3Cc1ccc(O)cc1 (configuration not stated)
→ 4	-0.5	-5.7	-5	-16	1.0%
36: C/C(=C\C(=O)c1ccccc1)NCc1ccc(F)cc1
→ -2	0.4	0.0	1	2	-1.3%
37: Cc1csc(NC(=O)NC2(C(F)(F)F)Oc3ccccc3O2)n1
→ 17	3.0	4.8	-2	3	-0.3%
38: COc1ccc(-c2cn[nH]c2-c2ccc(O)cc2O)cc1
→ -5	1.5	5.5	-2	-4	-3.4%
39: C/C(=N/OC(=O)c1c(-c2c(F)cccc2Cl)noc1C)c1cnccn1
→ -2	0.2	0.5	2	0	0.1%
40: CCC(C(=O)NCCCN1CCN(C)CC1)n1nc(C)c2sc3ccccc3c2c1=O (configuration not stated)
→ -12	0.2	-6.4	-1	1	-1.0%
41: Cc1ccc(-c2nn[nH]n2)cc1Cl
→ -3	0.2	-4.0	-14	-2	0.9%
42: O=C(O)C[C@]1(C(=O)Nc2ccc(F)cc2)CC(/C=C/c2ccccc2)=NO1
→ -1	0.1	-3.6	-3	2	1.5%
43: CCN(CC(=O)Nc1ccc2c(c1)OCCO2)C(=O)/C=C/c1ccc(OC)c(OC)c1
→ 3	-0.6	-0.5	-6	2	0.9%
44: COc1cc(N(C)C)c([N+](=O)[O-])cc1C(=O)N1CCN(Cc2ccccc2)CC1
→ -15	0.3	-1.6	-9	2	1.2%
45: CCCCOC(=O)Cn1c(=O)n(CC(=O)OCCCC)c2ccccc21
→ -6	0.6	-0.4	11	15	8.5%
46: Cc1cc(C(=O)NNC(=O)COc2c(C)cc(Br)cc2C)n[nH]1
→ -4	-0.4	-3.6	-1	2	1.8%
47: C[C@H](CO)N1C[C@H](C)[C@@H](CN(C)C(=O)Nc2ccc(C(F)(F)F)cc2)Oc2c(NS(=O)(=O)c3ccc(F)cc3)cccc2C1=O
→ -9	-1.1	-7.0	4	2	1.6%
48: Cc1onc(-c2ccccc2Cl)c1C(=O)O/N=C(\N)c1cccc([N+](=O)[O-])c1
→ ?	0.8	?	-14	1	1.4%
49: Fc1cccc(Cn2ccc(-c3ccc4c(c3)OCO4)n2)c1
→ -5	1.6	1.5	18	5	-0.3%
50: CC(=O)Oc1ccc(/C=N/NC(=O)CCSc2ccccc2)cc1
→ 2	-0.9	0.1	-12	-1	0.1%
51: N#Cc1c(NC(=O)c2ccc(Cn3cc(Br)cn3)o2)sc2c1CCCCCC2
→ -8	3.8	0.0	1	13	1.7%[38.3 µM]
52: O=C(CSc1nnc(CNC(=O)c2ccco2)o1)c1ccccc1
→ 0	-0.5	-3.3	0	7	-0.3%
53: COc1ccc(OC)c(N/C(C)=C/C(=O)c2ccc(Br)cc2)c1
→ -3	0.1	-2.8	-19	-18	0.2%
54: CN(C)C(=O)CN1CCN(Cc2nc(CC3CC3)no2)CC1
→ 2	0.4	-2.2	2	0	-0.6%
55: CN(Cc1ccccc1)C(=O)c1ccc2c(c1)S(=O)(=O)N=C1CCCCCN12
→ -1	0.7	0.4	6	5	-1.2%
56: CCCc1cc(C(=O)NC2CCCC2)no1
→ -6	0.4	-2.0	6	8	3.2%
57: OCCOCCOc1ccccc1OCCOCCO
→ -7	0.0	2.3	-13	-4	-1.0%
58: COC(=O)c1c(NC(=O)c2c(-c3ccccc3Cl)noc2C)sc2c1CCC2
→ -13	0.6	0.1	17	3	1.2%
59: O=C(Cc1n[nH]c(=O)c2ccccc12)OCC(=O)c1ccc(F)c(F)c1
→ -8	-0.1	2.0	5	-21	-0.9%
60: CCOc1ccc(C(=O)NCC(=O)OCc2ccc(F)cc2Cl)cc1
→ -4	-0.7	-1.6	29	nt	0.3%
61: COc1ccc(NS(=O)(=O)c2ccc(N3CCCC3)c(NC(=S)Nc3ccc(SC(F)F)cc3)c2)cc1
→ -25	0.8	6.6	-25	7	4.1%
62: Clc1ccsc1-c1ccnc(-n2cccc2)n1
→ 1	-0.2	-2.6	4	0	-0.5%
63: CC(C)(C)Cc1nnc(NC(=O)Cc2cccs2)s1
→ -5	2.3	0.2	-20	nt	2.0%

Screening data: PubChem, National Center for Advancing Translational Sciences (NCATS)
